Compound activity (PubChem BioAssay)
Mtb growth – Confirmatory growth inhibition assay against Mycobacterium tuberculosis H37Rv, potency (AID 1949) | most inactive calls were filed without a number and no value below 0 was filed | inhibition, % at 10 µg/mL; hits with a dose series show IC50 in µg/mL | 1.6% of 100,000 active;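 active = confirmed in a dose series; inconclusive = about 50% or more but not retested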;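 also: bacteria grown 7 days with compound before Alamar blue readout; 0% = untreated bacteria and 100% = reference antibiotic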
Starred values were filed as active, the others as inactive; i = inactive; ? = inconclusive.

Start of the data: the first two entries as a preview:
Molecule,Mtb growth
CCn1c(SCC(=O)Nc2c(C)cc(I)cc2C)nnc1C(C)NC(=O)c1ccccc1Cl (centres undefined),i
CCn1c(SCC(=O)N2CCCC2)nnc1-c1ccccc1,i

The listing, from the start:
Molecule,Mtb growth
CCn1c(SCC(=O)Nc2c(C)cc(I)cc2C)nnc1C(C)NC(=O)c1ccccc1Cl (centres undefined),i
CCn1c(SCC(=O)N2CCCC2)nnc1-c1ccccc1,i
Cc1ccc2nc3[nH]c(=O)[nH]c(=O)c3nc2c1,i
Cc1ccc(C(=O)C(C)Oc2ccc(NC(=O)c3ccccc3Cl)cc2)cc1 (centres undefined),i
O=C(CCN1C(=O)c2ccccc2C1=O)N1CCN(c2ccccc2F)CC1,i
S=c1[nH]nc(-c2ccncc2)n1-c1ccc(Nc2ccccc2)cc1,i
O=C(O)C1CC=CCC1C(=O)NCc1ccncc1 (centres undefined),i
COc1cccc(NC(=S)N2CCCCC2)c1,i
C#CCOc1ccccc1C1C2=C(CC(C)(C)CC2=O)N(C)C2=C1C(=O)CC(C)(C)C2,i
CS(=O)(=O)N(CC(=O)NCCSc1ccccn1)c1ccc(Oc2ccccc2)cc1,i
CCOc1ccc(N2C(=O)CC(N(Cc3ccc(OC)cc3)C(=O)Nc3ccc(OC)cc3)C2=O)cc1 (centres undefined),i
CC(C)C(=O)Nc1cccc(NC(=S)NC(=O)c2cccc(F)c2)c1,i
O=S(=O)(Nc1ccc(S(=O)(=O)N2CCOCC2)cc1)c1ccc(Br)cc1,i
CCN(CC)C(=O)c1sc(NC(=S)N2CCN(C(=O)c3ccco3)CC2)c(C(=O)OC)c1C,i
O=C(Nc1ccc(S(=O)(=O)Nc2ccc(Cl)c(C(F)(F)F)c2)cc1)c1ccc([N+](=O)[O-])cc1,i
Cn1c(=O)c2c(-c3ccc(Br)cc3)nccc2n(C)c1=O,i
COc1ccc(Br)cc1C(=O)NCC1COc2ccccc2O1 (centres undefined),21%
C=CCN1C(=O)NC(=O)/C(=C\c2cc(OC)c(O)c(OC)c2)C1=O,1%
O=[N+]([O-])c1ccc(N(c2ccccc2)c2ccccc2)cc1,10%
COc1ccc(/C=C2/SC(=O)N(CCCC(=O)Nc3ccccc3O)C2=O)cc1,i
COc1cccc(OC)c1C(=O)NC(=S)Nc1ccc(NC(=O)c2ccc(C(C)(C)C)cc2)cc1,i
NS(=O)(=O)c1ccc(NC(=S)N2CCN(c3ccc(Cl)c(Cl)c3)CC2)cc1,i
CCc1ccc(OCC(=O)Nc2ccccc2C(=O)OC)c(Br)c1,43%
CCOC(=O)Nc1nc(-c2ccccc2)c(C)s1,2%
CN1CCN(C2CC(=O)N(c3ccc(Oc4ccccc4)cc3)C2=O)CC1 (centres undefined),i
Cc1c(C(=O)Nc2ccc3oc(-c4cccc(F)c4)nc3c2)cccc1[N+](=O)[O-],i
COc1ccccc1Cn1c(-c2ccccc2OC)nc2ccccc21,i
Cn1nnc2cc(NC(=O)NCCC3=CCCCC3)ccc21,i
COc1cc(NC(=S)N2CCN(c3cccc(Cl)c3)CC2)c(OC)cc1Cl,i
CCOC(=O)c1ccc(N2C(=O)C(CC(=O)Nc3ccc(Br)cc3)N(CC(=O)OC)C2=S)cc1 (centres undefined),i
C=CCCC(C)(C#CCN1CCOCC1)OC(C)=O (centres undefined),i
O=C(Nc1cc(Cl)ccc1C(=O)O)c1ccc2c(c1)C(=O)N(Cc1ccccc1)C2=O,i
COC(=O)c1ccc(C(=O)OC)c(NC(=O)c2ccccc2N(Cc2ccccc2)S(=O)(=O)c2ccc(OC)cc2)c1,3%
Cc1oc(C(=O)O)cc1CSC(C)C(=O)O (centres undefined),i
Cc1csc2nc(=O)c3ccccc3n12,1%
COC(=O)c1c(NC(=O)c2cccnc2)sc(C)c1C,i
N#Cc1c(NC(=S)NC(=O)CC23CC4CC(CC(C4)C2)C3)sc2c1CCC2,2%
CCOc1ccc(NC(=O)COc2ccc(Cl)cc2Cl)c([N+](=O)[O-])c1,i
CC(=O)Nc1nnc(SCc2ccc(C(C)(C)C)cc2)s1,6%
COc1ccc(Cl)cc1S(=O)(=O)N1CCCc2ccccc21,i
CCOc1ccc(C(=S)N(C)C)cc1,i
CCCC(=O)Nc1ccc2nc(SCC(=O)Nc3cc(Cl)c(OC)cc3OC)sc2c1,30%
COc1ccc(CCNC(=O)C2CCCN(S(=O)(=O)c3ccc(Cl)cc3)C2)cc1OC (centres undefined),i
CC1(C)Oc2ccc3ccc(=O)oc3c2C(C=O)=C1Cl,1µg/mL*
O=C(NCCCn1ccnc1)C1CCC1,i
COc1cc(C(=O)Oc2ccc(Cl)cc2Br)cc(OC)c1OC,32%
COC(=O)c1cccc(NC(=O)CN(c2ccc(F)cc2)S(C)(=O)=O)c1C,i
CC(C)(C)NCC(O)Cn1cc(C=O)c2ccccc21 (centres undefined),i
O=C1C2C3C=CC(C3)C2C(=O)N1CCOCc1ccccc1 (centres undefined),i
CC(C)CC(NC(=O)CCN1C(=O)c2ccccc2C1=O)c1ccccc1 (centres undefined),i
CCCCOc1ccc(CC(=O)NCC(=O)NCCc2ccccc2)cc1,i
O=C(NCc1ccco1)c1ccc(CNS(=O)(=O)c2cccc(C(F)(F)F)c2)cc1,i
COc1ccc(NC(=S)Nc2cnn(Cc3cccc4ccccc34)c2)c(OC)c1,i
COC(=O)c1cccc(NC(=O)CN(c2ccccc2)S(=O)(=O)c2ccc(Cl)cc2)c1C,i
COc1ccc2oc(-c3cccc(NC(=O)c4cccc(F)c4)c3)nc2c1,1%
Fc1ccc(C2=CC(c3ccc(Br)cc3)n3nnnc3N2)cc1 (centres undefined),23µg/mL*
CCCCc1ccc(NC(=S)N2CCN(c3ccc(F)cc3)CC2)cc1,i
CCOC(=O)c1ccc(N2C(=O)CC(NC(C)(C)C)C2=O)cc1 (centres undefined),i
O=C(CSCc1c(F)cccc1Cl)NC1CCCC1,i
C#CCOc1c(Cl)cc(C(=S)N2CCOCC2)cc1OC,i

The list goes on:
Molecule,Mtb growth
O=C(COC(=O)c1ccccc1Cl)c1ccc(Br)cc1,10%
CC1CN(CCCCOc2ccc([N+](=O)[O-])cc2)CC(C)O1 (centres undefined),i
O=C(NCc1ccco1)c1cc(-c2cccc(Cl)c2)nc2ccccc12,6%
COC(=O)C1=CN(C(C)C)C=C(C(=O)OC)C1c1ccc2c(c1)OCO2,i
Cn1ncc(Cl)c1C(=O)NNC(=O)Nc1ccc(Br)cc1Cl,3%
NC(=O)c1sc2nc3c(cc2c1N)CCC3,i
N#Cc1ccc(-c2cccs2)[nH]c1=O,i
Cc1c(C#N)c2ccccc2n1CC(=O)N1CCc2ccccc2C1,7%
Cc1ccc(-c2cc(C(=O)N3CCOCC3)c3cc(Br)ccc3n2)o1,i
CN(Cc1ccccc1)C(=O)C1CCCN(Cc2ccccc2C(F)(F)F)C1 (centres undefined),i
O=C(Nc1ccc(F)c(F)c1)C(c1ccccc1)c1ccccc1,2%
CC12CN(C(=O)c3cccs3)CC(C)(CN(C(=O)c3cccs3)C1)C2=O,i
N#C/C(=C/c1ccc(O)cc1)C(=O)Nc1ccccc1,i
COc1ccc(OC)c(NC(=O)CSc2nc(-c3ccccc3)cs2)c1,3%
CCc1ccc(N(CC(=O)Nc2ccccc2C(=O)NCc2ccco2)S(C)(=O)=O)cc1,i
COC(=O)Nc1ccc(S(=O)(=O)N2CCCc3cccc(O)c32)cc1,1%
COc1cc(C2C(C(=O)c3cccs3)=C(O)C(=O)N2c2cc(C)on2)cc(OC)c1OC (centres undefined),i
O=C(NCCC1=CCCCC1)c1ccc(Cl)s1,i
O=C(Nc1ccccc1C(=O)NCCOc1ccccc1)c1cc(F)c(F)cc1Cl,i
Nn1c(N2CCCCC2)nc2ccccc21,i
CCOC(=O)C(=O)N1N=C(c2cccc(Br)c2)CC1(O)C(F)(F)F (centres undefined),i
Cc1ccc(C(=O)CN2C3=NCCN3c3ccccc32)cc1,i
CN1CCC(NC(=O)c2ccncc2)CC1,2%
CCOc1ccc(C(=O)NC(=S)Nc2ccc(I)cc2F)cc1Cl,i
O=C(Nc1cccnc1)c1ccc(-c2cc(Cl)ccc2Cl)o1,i
Cc1ccc(NC(=O)C2C3CC4OC(=O)C2C4C3)cc1Cl (centres undefined),i
O=C(NNC(=S)NCc1ccc(F)cc1)c1ccncc1,5.8µg/mL*
O=C(Nc1ccccc1C(F)(F)F)C1CCCO1 (centres undefined),i
Cc1cc(Br)c(NC(=O)c2ccc(Cl)cc2)cc1C,9%
Cc1ccc(C(=O)Nc2nc(C)c(C)s2)o1,0%
COCCCNCCCCOc1ccc(Cl)c(Cl)c1,0%
COC(=O)c1sccc1NC(=O)C1c2ccccc2Oc2ccccc21,i
COc1ccc(-c2noc(COc3cccc(C)c3C)n2)cc1OC,5%
CCc1ccc(OC(=O)C(c2ccccc2)c2ccccc2)cc1,?
COc1cccc(-c2cc(C(=O)Nc3ccc(OC)cc3[N+](=O)[O-])c3ccccc3n2)c1,1%
Cc1ccccc1OCC(=O)Oc1ccc(Br)cc1Cl,i
C=CCn1c(SCC(=O)Nc2ccccc2[N+](=O)[O-])nc2ccccc2c1=O,i
Cc1occc1-c1nnc2sc(-c3ccc(-c4ccccc4[N+](=O)[O-])o3)nn12,0%
O=C(CSCc1ccccc1)Nc1cccc(C(=O)Nc2ccccc2C(=O)O)c1,i
NCc1ccc2c3c1CCCN3CCC2,i
Cc1ccc(-n2c(SCC(=O)N3CCCC3)nnc2-c2ccncc2)cc1C,7%
O=C(Nc1cccc(O)c1)c1ccc(NC(=O)c2cccs2)cc1,i
CCOc1cc(C(=S)N2CCOCC2)cc(Cl)c1OC(=O)c1cccc([N+](=O)[O-])c1,i
O=C(C1CCCO1)N1CCN(C(=S)NCCc2ccccc2)CC1 (centres undefined),i
CS(=O)(=O)c1ccc2nc(NC(=O)CSCc3ccccc3)sc2c1,i
Cc1cc(=O)n2[nH]c(-c3ccccc3Cl)cc2n1,i
COc1ccccc1-c1noc(C2CCN(S(=O)(=O)c3ccccc3)CC2)n1,i
Cc1ccc(-c2cc3ccccc3oc2=O)cc1NC(=S)NC(=O)c1ccccc1C,i
c1ccc(-c2ccccc2-c2nc(-c3ccncc3)no2)cc1,?
COc1ccc(NC(=S)Nc2ccn(C)n2)c(OC)c1,i
O=C(NCc1ccco1)C(=O)NC1CC1,i
CCOc1ccccc1N(CC(=O)Nc1ccccc1-c1ccccc1)S(C)(=O)=O,i
CCOC(=O)c1ccc(NC(=O)CSc2nc(-c3ccncc3)cc(C(F)(F)F)c2C#N)cc1,5%
Cc1ccc(C)c(C(=O)NCCN(C)C)c1,i
O=C(CN(Cc1ccc(F)cc1)S(=O)(=O)c1ccccc1)N1CCN(c2ccccc2F)CC1,i
CN(C)Cc1c(O)ccc2occ(C(=O)c3cccs3)c12,i
CCOC(=O)c1c(CN2CCC(C)CC2)oc2ccc(OC)cc12,i
CC1=C(C(=O)OCc2ccccc2)C(c2ccccc2OC(F)F)NC(=O)N1 (centres undefined),i
CCCCOc1ccc(C(=O)Nc2ccc(OC)cc2C)cc1,i
CCOC(=O)c1c(NC(=O)c2cccc(F)c2)sc(C(=O)Nc2ccccc2C)c1C,i

Taken from above, 3 compounds:
Molecule,Mtb growth
CCn1c(SCC(=O)Nc2c(C)cc(I)cc2C)nnc1C(C)NC(=O)c1ccccc1Cl (centres undefined),i
CCn1c(SCC(=O)N2CCCC2)nnc1-c1ccccc1,i
Cc1ccc2nc3[nH]c(=O)[nH]c(=O)c3nc2c1,i

(continued)
Molecule,Mtb growth
COc1ccc(NS(=O)(=O)c2ccc3c4c(cccc24)C(=O)N3)cc1OC,i
CCCn1c(SCC(=O)N2CCOCC2)nnc1-c1ccncc1,i
C=CCNC(=O)CN(c1ccc(I)cc1)S(C)(=O)=O,i
Cc1cc(C)c(S(=O)(=O)Nc2ncn[nH]2)c(C)c1,9%
O=C(N1CCN(c2cc(Cl)ccc2Cl)CC1)C12CC3CC(CC(C3)C1)C2,i
COc1ccc(-c2cc(C(=O)N/N=C\c3cccc(O)c3)[nH]n2)cc1,2%
CN(c1ccccc1C(=O)Nc1ccc(S(=O)(=O)N2CCCCCC2)cc1)S(=O)(=O)c1ccccc1,i
CC(=O)Nc1ccc(OCc2cccc(Cl)c2Cl)cc1,i
CCCCOC(=O)c1cccc(NC(=O)COc2cccc(C)c2C)c1,0%
C=CCOc1ccc(CNc2cccc(C(=O)O)c2)cc1OC,i
O=S(=O)(c1ccccc1)N1CCN(C/C=C/c2ccccc2)CC1,12%
CCSc1ccc(NS(=O)(=O)c2cccc([N+](=O)[O-])c2)cc1,i

Fetched one by one from the list above:
Molecule,Mtb growth
CC(=O)Nc1ccc(OCc2cccc(Cl)c2Cl)cc1,i
CCCCOC(=O)c1cccc(NC(=O)COc2cccc(C)c2C)c1,0%
O=S(=O)(c1ccccc1)N1CCN(C/C=C/c2ccccc2)CC1,12%
C=CCNC(=O)CN(c1ccc(I)cc1)S(C)(=O)=O,i
C=CCOc1ccc(CNc2cccc(C(=O)O)c2)cc1OC,i
CCSc1ccc(NS(=O)(=O)c2cccc([N+](=O)[O-])c2)cc1,i
COc1ccc(NS(=O)(=O)c2ccc3c4c(cccc24)C(=O)N3)cc1OC,i

Only part of the results is shown (hit frequency here may not be typical).
